# Screening data deposited in PubChem by ICCB-Longwood Screening Facility, Harvard Medical School.
# Choline anaer gr: growth inhibitors of anaerobic choline-fed gram-negatives, minimal medium, absorbance; Gram-negative bacterium anaerobic choline minimal medium; stronger effect = lower value; many inactives read as strong as hits in the columns shown; calls only; 55,000 tested, 0.2% active;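 active = growth z-score on choline under -2 at 7 or 20 h with little or no fall on glycerol, limits in tiers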;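 note: stock transfer was 300 nL into about 50 µL; the organism is E. coli; final concentration not given here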
# Choline anaer gr early: second read-out of Choline anaer gr, no call of its own (marks repeat the call); z-score; measured here: choline growth z-score, timepoint 1;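 score of optical density at 7 h as mean of two plates; lower means less growth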
# * = called active by the depositor; i = inactive; & = joins results of further samples. Not all compounds are listed; count on the stated rates, not on these rows.
# Fields: Choline anaer gr early | Choline anaer gr
COc1ccc(C2CC(=O)N(c3ccc(F)c(F)c3)C(=O)C2)cc1OC
  1.22 | i
CCCCN(C)C(=O)C1CCCN(S(=O)(=O)c2cc3c(cc2C)NC(=O)C(CC)O3)C1 (stereo unspecified)
  0.09 | i
CCOc1ccnc2c1c(=O)n(CC(=O)N1CCCc3ccccc31)c(=O)n2C
  -0.28 | i
Cn1c(=O)c2nc(S(=O)(=O)CCC(=O)Nc3ccc(F)c(Cl)c3)n(C)c2n(C)c1=O
  2.68 | i
Fc1ccc2c(c1)nc(N1CCCNCC1)c1cccn12
  -2.11 | i
O=C(c1ccco1)N1CCC(Oc2cc(N3CCCCC3)ncn2)C1 (stereo unspecified)
  0.41 | i
O=C1CN(Cc2cccc(Cl)c2)S(=O)(=O)c2ccccc2N1Cc1cccc(F)c1
  0.59 | i
Cc1ccc(C)c(N2CCN(C(=O)c3[nH]c(C)c(S(=O)(=O)N4CCCC4)c3C)CC2)c1
  -0.04 | i
Cc1ccc(NC(=O)N(C)CCc2noc(C(=O)NCc3ccc(Cl)cc3)n2)cc1Cl
  -0.53 | i
CCN(CC)S(=O)(=O)c1ccc2c(c1)N(CC(=O)NCCc1ccc(Cl)cc1)C(=O)CO2
  -0.38 | i
FC(F)(F)c1cc(-c2ccccn2)nc2c(-c3ccc(Cl)cc3)cnn12
  0.67 | i
COc1ccc(-c2nnc(-c3ccccc3)o2)cc1S(=O)(=O)Nc1ccccc1O
  -0.29 | i
Cc1csc(NC(=O)NCCCSc2ncccn2)n1
  -0.91 | i
Cc1[nH]c(-c2nnc(C3CC3)o2)c(C)c1S(=O)(=O)NC1CCCC1
  -0.25 | i
CC(Sc1nnc(-c2ccncc2)o1)C(=O)Nc1ccc2c(c1)OCCO2 (stereo unspecified)
  0.17 | i
CCOc1ccc(NC(=O)c2[nH]c(C)c(S(=O)(=O)N3CCCCC3)c2C)cc1
  -0.01 | i
Cn1c(=O)cc(SCC(=O)NCC2COc3ccccc3O2)c2ccc(Cl)cc21 (stereo unspecified)
  1.11 | i
COc1ccc(NC(=O)c2c(C)oc3ccc(OCc4ccccc4)cc23)cc1
  0.86 | i
Cc1cccc(C2N3CC4(C)CN2CC(C)(C3)C4O)c1 (stereo unspecified)
  0.29 | i
COCC(=O)N1CCCCC1CCN1CCCCC1 (stereo unspecified)
  0.66 | i
Cc1ccc(-c2cc(C(=O)NCCCN3CCc4ccccc4C3)c(C)[nH]2)cc1C
  -4.25 | i
CNC(=O)c1c(NC(=O)c2ccc3c(c2)OCCO3)sc2c1CCCC2
  0.87 | i
Cn1c(CN2CCN(C(=O)Nc3cccc(Cl)c3)CC2)nc2cc(C(=O)N3CCCC3)ccc21
  -0.13 | i
COc1ccc([C@@H]2Sc3ccccc3N(CCN(C)C)C(=O)[C@@H]2OC(C)=O)cc1
  1.01&-0.32&0.28&0.04&-0.22 | i
C=CCn1c(=O)c2ccc(C(=O)NCc3ccc4c(c3)OCO4)cc2n(CC(=O)Nc2cccc(F)c2)c1=O
  0.46 | i
Cc1ccc(-c2c(C(=O)Nc3ccc(S(N)(=O)=O)cc3)oc(=O)c3ccccc23)cc1
  0.92 | i
Cc1nn(-c2ccc(-c3noc(C4CCC4)n3)cc2)cc1C(=O)Nc1ccc2c(c1)OCO2
  0.28 | i
CCN(CC)C(=O)c1ccc2c(c1)N(CC(=O)N1CCOCC1)C(=O)CO2
  -0.32 | i
CCC(=O)N1c2ccc(S(=O)(=O)N3CCCCC3)cc2CC1C(=O)NCCOC (stereo unspecified)
  -1.56 | i
CC1CCN(S(=O)(=O)c2ccc(-c3nnc(C4CCC4)o3)o2)CC1
  1.3 | i
CC1=C(/C=C/C(C)=C/C=C/C(C)=C/C(=O)O)C(C)(C)CCC1
  -0.47&0.02&0.45&0.43&-0.81 | i
O=C(Cn1nc2c(N3CCOCC3)nc3ccccc3n2c1=O)NCC1CCCO1 (stereo unspecified)
  -0.08 | i
NS(=O)(=O)c1ccc(NC(=O)Cn2cnc(S(=O)(=O)N3CCCCC3)c2)cc1
  -0.14 | i
CC(=O)Nc1ccccc1-c1nnc(SCC(=O)Nc2ccccc2Cl)[nH]c1=O
  -1.13 | i
O=C(Cc1ccc(Cl)cc1)NC(c1ccccc1)c1nnc(-c2ccccc2)o1 (stereo unspecified)
  1.56 | i
Cc1ccccc1-c1nc(-c2cccnc2)no1
  -0.14 | i
Cc1ccc(-n2nnc(C(=O)O)c2C)cc1Cl
  -0.03 | i
C=C1C[C@@H](O)[C@H](/C=C/[C@@H](O)CCCCC)[C@H]1C/C=C\CCCC(=O)O
  0.88 | i
Cc1cc(F)ccc1NS(=O)(=O)c1cc(-c2nc(C(C)(C)C)cs2)cs1
  0.09 | i
CCc1ccc(NC(=O)C2CCN(S(=O)(=O)c3ccc4c(c3)CC(C)N4C(C)=O)CC2)cc1 (stereo unspecified)
  1.52 | i
CCc1ccc(OC(C)C(=O)Nc2nonc2-c2ccc(Br)cc2)cc1 (stereo unspecified)
  1.74 | i
CCn1nccc1C(=O)N1CCCCC1CCN1CCOCC1 (stereo unspecified)
  0.46 | i
O=C(CSc1nccn2nc(-c3ccccc3)cc12)NCCc1ccccc1
  0.27 | i
O=C1CC(c2noc(C3CC3)n2)CN1c1ccccc1 (stereo unspecified)
  0.53 | i
Cc1[nH]c(=O)[nH]c(=O)c1S(=O)(=O)NCCO
  0.62 | i
Cc1ccc(CNC(=O)C2CCN(c3ncccc3S(=O)(=O)N3CCCCC3)CC2)cc1
  0.32 | i
O=C(c1ccccc1Br)N1CCN(CCc2ccccn2)CC1
  -0.48 | i
CCc1nn2c(-c3ccccc3OC)ccnc2c1-c1ccccc1
  0.84 | i
Cn1nc(C(=O)N2CCCC(C(=O)Nc3ccccc3)C2)c2c1CCN(C(=O)C(C)(C)C)C2 (stereo unspecified)
  -0.79 | i
CCN(CC)S(=O)(=O)C1CCS(=O)(=O)C1 (stereo unspecified)
  0.65 | i

# New compounds follow:
# Fields: Choline anaer gr early | Choline anaer gr
O=c1cc(CNc2ccc(Br)cc2)nc2nc(NCc3ccc(F)cc3)[nH]n12
  -0.25 | i
CC(C)c1onc(-c2c(Cl)cccc2Cl)c1COc1ccc(/C=C/c2cccc(C(=O)O)c2)c(Cl)c1
  0.26 | i
Cc1noc(COC2CCCN(S(=O)(=O)c3cn(C)cn3)C2)n1 (stereo unspecified)
  0.56 | i
CCOC(=O)c1ccc2nc(-c3ccccc3)cc(OCC(=O)N3CCOc4ccc(C)cc43)c2c1
  1.38 | i
O=C(NC1CCCC1)c1ccc(N2CCNCC2)c(NS(=O)(=O)c2ccc(F)c(Cl)c2)c1
  0.13 | i
Cc1cccnc1-n1c(C)c(C)c2c1ncn1nc(-c3ccncc3)nc21
  0.11 | i
Cc1ccc(Nc2cc(C)nc(-n3nc(C)cc3C)n2)cc1
  -0.81 | i
CN1CCN(C(=O)c2ccc(-c3cc(N4CCCC4)ncn3)cc2)C(c2ccccc2)C1 (stereo unspecified)
  0.35 | i
CN(C)c1cc(OC2CCN(C(=O)c3ccnn3C)C2)ncn1 (stereo unspecified)
  -0.68 | i
CCc1nnc2sc(-c3ccc(C)c(NC(=O)c4ccc5c(c4)OCCO5)c3)nn12
  0.41 | i
Cc1cccc(NC(=O)CN2C(=O)C3CCCCN3c3ccc(S(=O)(=O)N4CCCCC4)cc32)c1 (stereo unspecified)
  0.45 | i
Brc1ccc(-c2nn[nH]n2)cc1
  -1.04 | i
O=C(CN1CCN(Cc2ccc(F)cc2)C(=O)C1=O)N1CCN(c2ccccn2)CC1
  -0.12 | i
Cc1cc(C2CCCN2C(=O)c2cccc(F)c2)on1 (stereo unspecified)
  -0.23 | i
CC1=C(C(=O)Nc2ccccc2)C(c2ccc(F)c(Br)c2)n2ncc(C(=O)Nc3ccc(C)cc3)c2N1 (stereo unspecified)
  -1.04 | i
CCCN1CC(=O)N(c2ccc(C)cc2)[C@@H]2CS(=O)(=O)C[C@@H]21
  -1.75 | i
COc1ccc(N2CCN(C(=O)C3=C(C)C(=O)OC34CCCCC4)CC2)cc1
  0.56 | i
Cc1ccc(-c2nn3c(=O)cc(CN4CCN(C(=O)c5ccccc5Br)CC4)nc3s2)cc1
  -0.25 | i
COc1ccccc1CNC(=O)C1c2c(C)nn(-c3ccccc3)c2SCC(=O)N1c1cccc(F)c1 (stereo unspecified)
  1.35 | i
CCC1CCCCN1Cc1nc(Cn2ccn3nc(-c4cccs4)cc3c2=O)no1 (stereo unspecified)
  1.12 | i
CCc1nn2c(=O)cc(CN(C)c3ccc(Cl)cc3)nc2s1
  0.46 | i
Nc1nc2c(ncn2C2OC(CO)C(O)C2O)c(=O)[nH]1 (stereo unspecified)
  0.71 | i
O=C(NCc1ccc(Br)cc1)c1cccc(Oc2cc(-c3ccccc3)ncn2)c1
  0.57 | i
O=C(Cn1ccn2nc(-c3ccc4c(c3)OCO4)cc2c1=O)N1CCN(c2ccc(F)cc2)CC1
  0.1 | i
CCOC(=O)Cn1nc2c(-c3nc(-c4ccc(Cl)cc4)no3)cccn2c1=O
  -0.47 | i
O=C(NCCN1CCN(c2ccccc2F)CC1)C1CCCN(c2nc3cccnc3s2)C1 (stereo unspecified)
  -0.27 | i
O=C(Nc1ccc(Br)cc1)N1CCN(C(=O)c2nsc3ccccc23)CC1
  -0.92 | i
CN(C)S(=O)(=O)c1ccc(-c2nnc(C(=O)NCC3CC3)o2)cc1
  -0.31 | i
COc1ccc(Cl)cc1NC(=O)c1nc(-c2ccc(C)cc2)n2c1CCCCC2
  0.6 | i
CCS(=O)(=O)c1nc2ccc(NS(=O)(=O)c3ccc(F)cc3F)cc2s1
  0.33 | i

# Random excerpt: five records from the list.
# Fields: Choline anaer gr early | Choline anaer gr
O=C(NCCN1CCN(c2ccccc2F)CC1)C1CCCN(c2nc3cccnc3s2)C1 (stereo unspecified)
  -0.27 | i
COc1ccc(Cl)cc1NC(=O)c1nc(-c2ccc(C)cc2)n2c1CCCCC2
  0.6 | i
O=C(Cn1ccn2nc(-c3ccc4c(c3)OCO4)cc2c1=O)N1CCN(c2ccc(F)cc2)CC1
  0.1 | i
O=C(NCc1ccc(Br)cc1)c1cccc(Oc2cc(-c3ccccc3)ncn2)c1
  0.57 | i
O=C(Nc1ccc(Br)cc1)N1CCN(C(=O)c2nsc3ccccc23)CC1
  -0.92 | i

# (more compounds)
# Fields: Choline anaer gr early | Choline anaer gr
CC(C)c1ccc(CN(CC2CCCO2)S(=O)(=O)c2ccc(S(=O)(=O)N(C)C3CCCCC3)cc2)cc1 (stereo unspecified)
  1.23 | i
COc1ccc(OC)c(NS(=O)(=O)c2ccc(N3C(=O)CCS3(=O)=O)cc2)c1
  -0.29 | i
Cc1[nH]c(C)c(S(=O)(=O)NC2CCCCCC2)c1-c1nnc(C2CC2)o1
  -1.31 | i
Cc1ccc2oc(=O)c3cc(C(=O)Nc4ccc(S(N)(=O)=O)cc4)sc3c2c1
  0.39 | i
Cc1cc(NC(=O)CCc2nc(CSc3nnc(-c4ccccc4)o3)no2)ccc1Br
  -0.53 | i
O=c1c2c(nc3nc(-c4ccc(Cl)cc4)[nH]n13)CCC2
  0.19 | i
CCCn1c(=O)c2sccc2n2c(CCC(=O)NC3CC3)nnc12
  -0.53 | i
CC(CC(=O)N1CCN(C(c2ccccc2)c2ccccc2)CC1)CC1=NS(=O)(=O)c2ccccc2N1 (stereo unspecified)
  -0.41 | i
CCCN1CCN(CCCNC(=O)Nc2c[nH]c3ccc(C)cc3c2=O)CC1
  -0.24 | i
NC(=O)c1nc(-c2ccc3c(c2)OCCO3)nc2c1n(Cc1ccccc1)c(=O)n2-c1ccc(F)cc1
  -1.21 | i

# Among those listed so far, two contain a tert-butyl group.
# Fields: Choline anaer gr early | Choline anaer gr
Cc1cc(F)ccc1NS(=O)(=O)c1cc(-c2nc(C(C)(C)C)cs2)cs1
  0.09 | i
Cn1nc(C(=O)N2CCCC(C(=O)Nc3ccccc3)C2)c2c1CCN(C(=O)C(C)(C)C)C2 (stereo unspecified)
  -0.79 | i

# Following part
# Fields: Choline anaer gr early | Choline anaer gr
Cc1c(NC(=O)CN2C(=O)C(C)(C)c3ccccc32)c(=O)n(-c2ccccc2)n1C
  0.18 | i
COc1ccc(Cc2nnc3sc(-c4ccc(OC)cc4OC)nn23)cc1
  0.33 | i
CCCn1c(=O)c2ccc(C(=O)NC(C)C)cc2n2c(=O)n(CC(=O)Nc3ccc(CC)cc3)nc12
  0.85 | i
COC(=O)c1cccc(NC(c2cccnc2)c2ccc3cccnc3c2O)c1 (stereo unspecified)
  0.08 | i
CCOC(=O)c1ccccc1NC(=O)Cn1cc2c(=O)n(Cc3ccc(F)cc3)cnc2n1
  0.26 | i
CCC(C)NC(=O)CN(C)S(=O)(=O)c1ccc2c(c1)c(=O)n(C)c(=O)n2C (stereo unspecified)
  -1.06 | i
COC(=O)c1cc(S(=O)(=O)N2CCCN(Cc3ccc(F)cc3)C2)cn1C
  -0.47 | i
Oc1ccccc1-c1ccnc2cc(-c3ccccc3)nn12
  0.75 | i
Cc1ccccc1-c1nn2c(=O)cc(N3CCN(C(=O)c4ccc(C(C)(C)C)cc4)CC3)nc2s1
  -0.74 | i
Cc1ccc(CNS(=O)(=O)c2cc(-c3ccno3)sc2C)o1
  0.08 | i
COc1cccc(OC)c1C(=O)Nc1ccc(-c2nc3ccccc3s2)c(O)c1
  0.53 | i
Cc1ccc2sc(NC(=O)c3ccc(S(=O)(=O)N(C)CC4CCCO4)cc3)nc2c1C (stereo unspecified)
  0.81 | i
CC(=O)Nc1ccc(-c2nnc3n(Cc4ccccc4)c(=O)c4ccccc4n23)cc1
  -0.98 | i
O=C(NCC(c1cccnc1)c1c[nH]c2ccccc12)Nc1ccccc1Cl (stereo unspecified)
  -0.8 | i
Cc1cccc(Cn2cc(C(=O)Nc3cccc(Br)c3)ccc2=O)c1
  0.3 | i
